From PubChem
Measles inh – inhibitors of measles virus growth in cells, primary screen, measles RdRp inhibitor project, cell-based, single point, HTS; infected Vero cells, GFP fluorescence, 64 h; active compounds read low; z-score (test concentration not listed); 0.1% of 33,000 active; AID 745, 2007;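 active = z-score under -3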;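 note: score is relative to mean and SD of the compound wells of a plate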
Starred values were filed as active, the others as inactive. These rows are one share of the data (hit frequency here may not be typical).

Measles inh | SMILES
0.81 | Cc1cc2nc(Cc3cccc([N+](=O)[O-])c3)c(=O)[nH]c2cc1C
0.49 | CC1CCN(CC(C)CNC(=O)C2(O)c3cc(Br)ccc3NC(=O)N2c2ccc(Cl)cc2)CC1 (configuration not stated)
0.07 | O=C(CN1N=C(c2ccc(Cl)cc2)CCC1=O)NCCN1CCN(Cc2ccccc2)CC1
1 | COc1ccc(NC(=O)C2=C(C)NC(=O)NC2c2ccc(OC)c(OC)c2)c(OC)c1 (configuration not stated)
-0.27 | O=C(O)CCC(=O)N1N=C(c2c(-c3ccccc3)c3cc(Br)ccc3[nH]c2=O)CC1c1ccccc1Cl (configuration not stated)
0.78 | O=C(Nc1nnc(-c2cccs2)o1)c1ccc(S(=O)(=O)N2CCCCC2)cc1
-0.27 | Cc1ccc(S(=O)(=O)NCC2CCC(C(=O)NCc3ccccc3)CC2)cc1 (configuration not stated)
0.98 | CCOC(=O)C(CC)Oc1ccc2c(C(F)(F)F)cc(=O)oc2c1 (configuration not stated)
-0.74 | O=C(CSc1nc2sc3c(c2c(=O)n1-c1ccccc1)CCC3)c1cccs1
-0.34 | O=C(NCCCN=C1NS(=O)(=O)c2ccccc21)c1ccncc1
-0.38 | O=C(Nc1nc(-c2ccc(Br)cc2)cs1)c1cc(Cl)ccc1[N+](=O)[O-]
-0.2 | COC(=O)c1ccccc1NC(=O)COc1ccc2c(c1)OCO2
1.1 | CN1CCN(c2cc(N3CCN(S(=O)(=O)c4ccc5ccccc5c4)CC3)ccc2[N+](=O)[O-])CC1
-0.74 | COc1ccc(-c2oc3ncn4nc(CSc5nc6ccccc6o5)nc4c3c2-c2ccc(OC)cc2)cc1
-0.27 | Cc1c(Br)c(C(F)(F)F)nn1CC(N)=O
0.02 | COc1ccc(Cl)cc1NC(=O)C(=O)NCC(C)C
-0.65 | CCC(=O)N1CCc2cc(Br)cc(S(=O)(=O)NCCN3CCCCC3CC)c21 (configuration not stated)
0.02 | O=C(O)CN1C(=O)c2ccccc2S1(=O)=O
-0.57 | Cc1cccc(-n2c(=O)c3ccccc3n(CC(=O)C(C)(C)C)c2=O)c1
1.4 | COc1ccc(C2CC(c3cccs3)=NN2S(=O)(=O)c2ccc(C)cc2)cc1 (configuration not stated)
-0.38 | Cn1c(=O)n(CC(=O)NCc2cccnc2)c(=O)c2ccccc21
-0.1 | CC(C)c1ccc(NC(=O)C(c2cc3c(cc2[N+](=O)[O-])OCO3)N2CCOCC2)cc1 (configuration not stated)
-0.09 | COc1cc(OC)cc(C(=O)N=c2sc3cc(F)ccc3n2C)c1
-1.2 | O=C(Nc1nc2ccc([N+](=O)[O-])cc2s1)C1CCCCC1
-0.56 | CCC(C)n1c(SCC(=O)Nc2ccc(OC)cc2OC)nc2ccsc2c1=O (configuration not stated)
0.75 | C=CCC1Cc2ccccc2C(CC=C)N1 (configuration not stated)
0.1 | CCC(C)(O)C#CC#CC(C)(O)CC (configuration not stated)
-1.4 | Cc1cc(NC(=O)c2cc(-c3ccc4c(c3)OCO4)on2)nn1Cc1ccc(Cl)cc1
-0.99 | CCN(C(=O)c1coc(=O)c2ccccc12)c1ccc(C)c(C)c1
-0.31 | S=c1[nH]c2ccccc2c2c1CCC2
1.4 | Cc1ccccc1Nc1c(-c2cccs2)nc2cccc(C)n12
0.39 | CCc1nnc(NC(=O)c2sc3nc4c(cc3c2N)CCCCCC4)s1
0.43 | Cc1ccc(-c2nc3ccccc3s2)cc1NC(=O)c1ccco1
1.9 | COc1ccc(S(=O)(=O)Nc2nnc(C(C)C)s2)cc1
-1.1 | CC(=O)N1N=C(c2c(-c3ccccc3)c3cc([N+](=O)[O-])ccc3[nH]c2=O)CC1c1cccc(Br)c1 (configuration not stated)
-0.17 | O=C1CC(c2cccs2)CC2=C1C(c1coc3ccccc3c1=O)Nc1ccccc1N2 (configuration not stated)
-0.06 | COC(=O)c1ccc(NC(=O)C23CC4CC(C2)CC(n2cncn2)(C4)C3)cc1
-0.36 | COC(=O)c1nc2n(n1)C(c1ccc(OC)cc1)C(C(=O)OC1CCCCC1)=C(C)N2 (configuration not stated)
-0.47 | COc1ccc(S(=O)(=O)N2CCN(CC(=O)c3cccc(OC)c3)CC2)cc1
-0.67 | CC(=O)Nc1cc(C(=O)N2CCCCCC2)ccc1Sc1ccc(Cl)cc1

Arranged by the number under Measles inh (falling): some entries from above
Measles inh | SMILES
-0.34 | O=C(NCCCN=C1NS(=O)(=O)c2ccccc21)c1ccncc1
-0.65 | CCC(=O)N1CCc2cc(Br)cc(S(=O)(=O)NCCN3CCCCC3CC)c21 (configuration not stated)
-0.74 | COc1ccc(-c2oc3ncn4nc(CSc5nc6ccccc6o5)nc4c3c2-c2ccc(OC)cc2)cc1

(further entries)
Measles inh | SMILES
-0.7 | CCOC(=O)c1c(NC(=O)CC2Sc3ccc(C(F)(F)F)cc3NC2=O)sc2c1CCC(C)C2 (configuration not stated)
-0.96 | CCN(CC)C(=O)c1cc2c(=O)n3cccc(C)c3nc2s1
0.77 | C=CCN1C(=O)c2ccccc2Sc2ccc(C(=O)N3CCN(c4ncccn4)CC3)cc21
-0.36 | COc1ccccc1N1CCN(S(=O)(=O)c2c(C)sc3ncn(CC(=O)N(C)c4ccc(Cl)cc4)c(=O)c23)CC1
-0.38 | CC1(C)CC(=O)C2=C(C1)C(c1ccccc1Cl)Nc1ccc3ccccc3c12 (configuration not stated)
-0.55 | O=C1c2cccnc2C(=O)N1CC1CCCO1 (configuration not stated)
-0.76 | CCOc1ccc(-n2nc(C(=O)Nc3ccc(OC)c(OC)c3)c3ccccc3c2=O)cc1
-0.07 | Cc1ccc(C2OC3(C(=O)c4ccccc4C3=O)C3C(=O)N(c4ccccc4Cl)C(=O)C23)cc1 (configuration not stated)
1.7 | CCOc1cccc2cc(C(=O)NCc3cccc(Cl)c3)c(=Nc3ccc(C(=O)O)cc3)oc12
0.69 | CCCc1cc(=O)[nH]c(SCC(=O)Nc2cccc(F)c2)n1

Quoted at random: 7 compounds from above, in no set order.
Measles inh | SMILES
-0.38 | CC1(C)CC(=O)C2=C(C1)C(c1ccccc1Cl)Nc1ccc3ccccc3c12 (configuration not stated)
-0.96 | CCN(CC)C(=O)c1cc2c(=O)n3cccc(C)c3nc2s1
-0.36 | COc1ccccc1N1CCN(S(=O)(=O)c2c(C)sc3ncn(CC(=O)N(C)c4ccc(Cl)cc4)c(=O)c23)CC1
1.7 | CCOc1cccc2cc(C(=O)NCc3cccc(Cl)c3)c(=Nc3ccc(C(=O)O)cc3)oc12
-0.55 | O=C1c2cccnc2C(=O)N1CC1CCCO1 (configuration not stated)
-0.07 | Cc1ccc(C2OC3(C(=O)c4ccccc4C3=O)C3C(=O)N(c4ccccc4Cl)C(=O)C23)cc1 (configuration not stated)
0.69 | CCCc1cc(=O)[nH]c(SCC(=O)Nc2cccc(F)c2)n1

The list goes on:
Measles inh | SMILES
-0.84 | CCOc1cccc2cc(C(=O)Nc3ccc(F)cc3)c(=Nc3ccc(C(=O)O)cc3)oc12
-0.25 | CCOC(=O)c1c(C)oc2ccc(N(C(C)=O)S(=O)(=O)c3cc(C)c(C)cc3C)cc12
-0.25 | CC(C)CCNc1cc(C(C)C)c(C#N)c2nc3ccccc3n12
0.28 | c1ccc(C2CCCSC2)cc1 (configuration not stated)
-1.1 | CCCOc1ccc(C2C(=O)N(C3CCCCC3)CC(=O)N2Cc2ccccc2Cl)cc1OC (configuration not stated)
0.17 | O=C(O)c1ccc(-n2c(=S)[nH]c3ccc(F)cc3c2=O)cc1
0.58 | Cc1ccc(-c2nc3c(C)cccn3c2Nc2c(C)cccc2C)o1
1.7 | Cc1ccc2oc(=O)c(-c3nc4ccccc4s3)cc2c1
-0.28 | Cc1ccc(CSCc2ccc(C(=O)NCc3cccnc3)o2)cc1
-0.25 | COc1cccc2c1OC1(C)C(C(=O)N(C)C)C2NC(=S)N1c1cccc(Br)c1 (configuration not stated)
-0.09 | COc1ccc(/C(O)=C2\C(=O)C(=O)N(Cc3ccco3)C2c2ccc(N(C)C)cc2)cc1 (configuration not stated)
-0.23 | COc1ccccc1N1CCN(C(=O)c2ccc(N3CCCC3=O)cc2)CC1
-1.5 | CCCCn1c(=N)n(CC(O)c2ccc(OCC)cc2)c2ccccc21 (configuration not stated)
-0.04 | NC(=O)c1ccccc1NC(=O)c1ccc(Br)o1
-0.33 | CCCOc1ccccc1C1Nc2ccccc2-c2nnc(SC)nc2O1 (configuration not stated)
1.1 | CCC1Sc2ccccc2N(CC(=O)NCc2cccnc2)C1=O (configuration not stated)
0.87 | C=CCSc1nnc2c(n1)OC(c1ccc(O)c([N+](=O)[O-])c1)N(C(C)=O)c1ccccc1-2 (configuration not stated)
0.67 | CCOc1ccc(C(=O)Nc2ccc3c(c2)oc2ccccc23)cc1
-0.09 | Cc1ncc([N+](=O)[O-])n1Cc1ccccc1F
0.94 | O=C(CCN1C(=O)c2ccccc2C1=O)Oc1ccc2c(c1)oc(=O)c1ccccc12

The final 2 records of the part before are carried over, then new ones follow.
Measles inh | SMILES
-0.09 | Cc1ncc([N+](=O)[O-])n1Cc1ccccc1F
0.94 | O=C(CCN1C(=O)c2ccccc2C1=O)Oc1ccc2c(c1)oc(=O)c1ccccc12
2.3 | COc1ccc(C2C(C(=O)Nc3ccc(C(F)(F)F)cc3)c3ccccc3C(=O)N2c2ccc(OC)cc2)cc1 (configuration not stated)
-1.9 | O=C(NCCc1ccccc1)C1c2ccccc2C(=O)N1CCc1ccc(Cl)cc1 (configuration not stated)
-0.43 | Cc1cccc(C)c1Nc1c(-c2ccsc2)nc2ccccn12
1.1 | CCn1c(=NC(=O)c2ccc(S(=O)(=O)N3CCCC3)cc2)sc2cccc(Cl)c21
0.73 | CCCOC(=O)c1ccc(NC(=O)CCN2C(=O)c3ccccc3C2=O)cc1
-0.64 | CCN(CC)c1nc(C)nc2sc(C(=O)Nc3ccc(F)cc3)c(C)c12
0.15 | Cc1cc(Br)ccc1N1CC(C(=O)O)CC1=O (configuration not stated)
-0.06 | O=S(=O)(c1ccccc1)c1nc(-c2ccccc2)oc1SCc1ccc(F)cc1
0.74 | COc1ccc2c(c1)c(=O)c1ccccc1n2CC(=O)Nc1ccc(C)c(F)c1
-0.39 | COc1cc(Nc2ncnc(N)c2[N+](=O)[O-])cc(OC)c1OC
-0.46 | COc1cc2c(cc1OC)C(COc1cc(C)cc(C)c1)N(C(=O)CC(C)C)CC2 (configuration not stated)
0.13 | CCOc1ccccc1NC(=O)CN1CCN(S(=O)(=O)c2ccc(C(C)C)cc2)CC1
1 | CC1CCCC(C)N1C(=O)CSc1nc(-c2ccco2)cc(C(F)(F)F)n1 (configuration not stated)
-0.17 | COc1ccc(C=NCCC2(c3ccc(OC)cc3)CCOC(C)(C)C2)cc1 (configuration not stated)
0.9 | Cc1c(C(=O)N2CCCC(C)C2)sc2ncn(CC(=O)N3CC(C)CC(C)C3)c(=O)c12 (configuration not stated)
-0.67 | CC(C)N1CCC(N2CCN(c3ccccc3)CC2)CC1
0.38 | CC(=O)N1CCc2cc(Br)cc(S(=O)(=O)Nc3ccc(C(C)C)cc3)c21
0.36 | O=S(=O)(NCc1ccco1)c1cccs1
-0.93 | CC(=O)OC1CCC2(C)C(CCC3C2CCC2(C)C3CC(O)C2(O)C(C)=O)C1 (configuration not stated)
0.67 | COc1cc2[nH]c(=S)n(C3CCCc4ccccc43)c(=O)c2cc1OC (configuration not stated)
-1.2 | CCN(c1ccccc1)S(=O)(=O)c1ccc2c(c1)oc(=O)n2C
1.1 | COc1cc(C2c3sc(=O)[nH]c3SC3C4CC(C5C(=O)N(c6cccc(C(F)(F)F)c6)C(=O)C45)C23)ccc1O (configuration not stated)
0.47 | COc1cc(C2CC(=O)Nc3c2ccc2ccccc32)cc(OC)c1OC(C)=O (configuration not stated)
-0.09 | COc1ccc(-n2c(=O)c3c(C)c(C)sc3n(CC(=O)N3CCCCCC3)c2=O)c(OC)c1
-0.67 | O=C(CS(=O)(=O)c1cn(Cc2ccccc2Cl)c2ccccc12)Nc1ccc2c(c1)OCO2
-0.18 | Cc1cccc(NC(=O)c2cc3c(CO)cnc(C)c3oc2=Nc2ccc(F)cc2)c1
1.3 | c1coc(CNc2nc(-c3ccncc3)cs2)c1
-0.83 | Cc1c(C)c2ccc(OCc3ccc(C(=O)O)o3)cc2oc1=O
-0.33 | Cc1ccc(NC(=O)c2ccccc2F)cc1
-2.6 | Cc1ccc(C2C(=O)N(C3CCCCCC3)CC(=O)N2Cc2ccc3c(c2)OCO3)cc1 (configuration not stated)
-1.3 | O=C(CN(Cc1ccccc1)S(=O)(=O)c1ccc(Br)cc1)NCc1ccccc1
0.28 | O=C1CC2CS(=O)(=O)CC2N1c1cccc(Cl)c1 (configuration not stated)
-1.9 | CCc1nc(-c2ccccc2)cc2cc(OC)c(OC)cc12
0.87 | COc1ccc(CCNC(=O)C(=O)NCc2ccco2)cc1
0.46 | O=C1c2cc(N3CCOCC3)c([N+](=O)[O-])cc2C(=O)N1c1cccc2c1CCCC2
-0.52 | COc1cc2c(cc1O)C(C)=NC(C)(C)C2
-0.35 | CC12CC3(C)CC(C)(C1)CC(C(=O)NCCO)(C2)C3
0.65 | Cc1ccc(-c2ccc(=O)n(CC(=O)NC3CCCCC3C)n2)cc1 (configuration not stated)
-1.2 | O=C(O)c1ccc(Nc2nc(-c3ccc(Cl)cc3)cs2)cc1
0.39 | Cc1cccc(N2CCN(c3ccc(N4C(=O)C5CCC(C)CC5C4=O)cc3[N+](=O)[O-])CC2)c1C (configuration not stated)

Nothing new here: two of the compounds above.
Measles inh | SMILES
-1.2 | O=C(O)c1ccc(Nc2nc(-c3ccc(Cl)cc3)cs2)cc1
0.39 | Cc1cccc(N2CCN(c3ccc(N4C(=O)C5CCC(C)CC5C4=O)cc3[N+](=O)[O-])CC2)c1C (configuration not stated)

(listing goes on)
Measles inh | SMILES
0.4 | COc1cccc2c1OC(c1ccccc1Cl)N1N=C(c3cccnc3)CC21 (configuration not stated)
-0.04 | Cc1ccc(C=Nc2cccc3ccccc23)cc1
-0.65 | Cc1sc2c(c1C)c(=O)n(-c1cccc(C(F)(F)F)c1)c(=O)n2CC(=O)N(C)c1ccccc1
-0.67 | CC(C)(C)n1nc2c(c1NC(=O)c1ccccc1Br)CS(=O)C2 (configuration not stated)
-0.3 | CCCCCCc1nnc(N)s1
0.08 | CC1(C)Cc2nc(N)c(C(=O)NCCO)cc2CO1
-1.2 | O=C(CN1CCOCC1)N1N=C(c2ccc(Br)cc2)CC1c1nc2ccccc2[nH]1 (configuration not stated)
0.91 | COC(=O)c1cnoc1N
-1 | O=C(Nc1ccc(NC(=O)c2ccc(I)o2)cc1)c1cccc(Cl)c1
